# RecA intein inh: blocks M. tuberculosis RecA intein splicing; P9WHJ3; cell-free RecA intein splicing, fluorescence; inhibition, %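 (about 9 µM by stock and volumes)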; 290,000 tested, 0.75% active; in the data active = inhibition above about 30%;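 note: 0% = vehicle wells and 100% = reference inhibitor control wells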
# Target sequence (P9WHJ3 whole entry, looked up): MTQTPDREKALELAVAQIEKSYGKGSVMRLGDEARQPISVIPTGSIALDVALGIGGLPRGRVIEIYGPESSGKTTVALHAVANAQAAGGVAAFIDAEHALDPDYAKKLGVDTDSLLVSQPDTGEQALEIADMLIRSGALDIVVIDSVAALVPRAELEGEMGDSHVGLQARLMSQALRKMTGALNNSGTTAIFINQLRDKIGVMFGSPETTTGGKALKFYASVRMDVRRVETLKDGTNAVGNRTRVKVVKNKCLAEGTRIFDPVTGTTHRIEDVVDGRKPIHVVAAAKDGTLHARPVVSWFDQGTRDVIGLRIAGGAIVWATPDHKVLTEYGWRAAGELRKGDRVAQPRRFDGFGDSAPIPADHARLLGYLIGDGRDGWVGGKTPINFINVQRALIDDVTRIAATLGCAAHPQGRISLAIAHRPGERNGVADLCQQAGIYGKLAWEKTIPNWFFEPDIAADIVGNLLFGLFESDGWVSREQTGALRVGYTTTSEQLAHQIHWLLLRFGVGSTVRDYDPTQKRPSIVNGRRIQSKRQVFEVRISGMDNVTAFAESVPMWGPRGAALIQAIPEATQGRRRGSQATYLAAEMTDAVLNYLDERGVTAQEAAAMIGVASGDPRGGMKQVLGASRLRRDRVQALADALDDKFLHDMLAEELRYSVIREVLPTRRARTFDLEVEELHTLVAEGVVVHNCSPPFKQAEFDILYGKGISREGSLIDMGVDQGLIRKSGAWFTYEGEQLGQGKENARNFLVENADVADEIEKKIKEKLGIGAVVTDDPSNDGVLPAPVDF
# Starred values were filed as active, the others as inactive. The list is partial. The share of hits here may be higher or lower than overall.
> O=C(NCc1ccco1)C1CCCN1C(=O)Nc1ccc(Br)cc1 (stereo not drawn)
  RecA intein inh = -0.6
> COc1cccc(C2C(C(=O)c3cccs3)=C(O)C(=O)N2CCN2CCOCC2)c1OC (stereo not drawn)
  RecA intein inh = 1.6
> Cc1ccc(C(=O)N(CCN2CCCCC2)CC2CCCN(C3CCCC3)C2)s1 (stereo not drawn)
  RecA intein inh = -0.5
> CCn1c(=N)c(C(=O)NC)cc2c(=O)n3cccc(C)c3nc21
  RecA intein inh = -485
> COc1cccc(C(=O)Nc2cc3c(cc2N2CCCC2)n(C)c(=O)n3C)c1
  RecA intein inh = -0.6
> CN(Cc1nccs1)C(=O)C1CCC(=O)N(CCCc2ccccc2)C1 (stereo not drawn)
  RecA intein inh = -1.8
> Cn1cc(Br)c(C(=O)N/N=C/c2cc3c(cc2Cl)OCO3)n1
  RecA intein inh = 0.0
> CC(=O)c1[nH]c(C)c(C(=O)N2CCCC(Nc3ccc(C(C)C)cc3)C2)c1C (stereo not drawn)
  RecA intein inh = -3.3
> O=C(c1cc(COc2ccc(F)c(F)c2)on1)N1CCN(C/C=C/c2ccccc2)CC1
  RecA intein inh = 15
> Cc1ccc(CNC(=O)C2CCN(C(=O)Nc3ccc(C)cc3)CC2)cc1
  RecA intein inh = -0.6

# A section from the list above:
> CCn1c(=N)c(C(=O)NC)cc2c(=O)n3cccc(C)c3nc21
  RecA intein inh = -485
> COc1cccc(C(=O)Nc2cc3c(cc2N2CCCC2)n(C)c(=O)n3C)c1
  RecA intein inh = -0.6
> CN(Cc1nccs1)C(=O)C1CCC(=O)N(CCCc2ccccc2)C1 (stereo not drawn)
  RecA intein inh = -1.8
> Cn1cc(Br)c(C(=O)N/N=C/c2cc3c(cc2Cl)OCO3)n1
  RecA intein inh = 0.0
> CC(=O)c1[nH]c(C)c(C(=O)N2CCCC(Nc3ccc(C(C)C)cc3)C2)c1C (stereo not drawn)
  RecA intein inh = -3.3
> O=C(c1cc(COc2ccc(F)c(F)c2)on1)N1CCN(C/C=C/c2ccccc2)CC1
  RecA intein inh = 15
> Cc1ccc(CNC(=O)C2CCN(C(=O)Nc3ccc(C)cc3)CC2)cc1
  RecA intein inh = -0.6

# Remaining list, next part
> COc1ccc(NS(=O)(=O)c2cc3c4c(c2)CCN4C(=O)CC3)c(OC)c1
  RecA intein inh = 15
> O=C1CCc2cc(NS(=O)(=O)c3ccc([N+](=O)[O-])cc3)cc3c2N1CC3
  RecA intein inh = 5.6
> O=C(COc1cccc2c1CCNC2=O)Nc1ccc(Cl)cc1
  RecA intein inh = 4.6
> O=C(N/C(=C/c1ccc(F)cc1)C(=O)N1CCOCC1)c1ccccc1
  RecA intein inh = 1.1
> C/C(=N/NC(=O)c1ccccn1)c1ccncc1
  RecA intein inh = 0.9
> CCOC(=O)c1c(NC(=O)COC(=O)c2ncc(Cl)c(Cl)c2Cl)sc(C(=O)N(C)C)c1C
  RecA intein inh = 38*
> CCOc1ccccc1NC(=S)NC(=O)CCc1ccccc1
  RecA intein inh = -1.7
> CN(C)S(=O)(=O)n1cc(/C=C(\NC(=O)c2ccccc2F)C(=O)NCCCn2ccnc2)c2ccccc21
  RecA intein inh = 1.9
> COc1ccc(C(=O)c2cccc(C(=O)c3ccc(OC)c(C)c3)c2)cc1C
  RecA intein inh = 1.8
> COc1cc(C(=O)NCCCC2CCCC2)ccc1OC1CCN(C(C)=O)CC1
  RecA intein inh = -1.7

# Sorted by formula weight (ascending): four of the compounds above.
> C/C(=N/NC(=O)c1ccccn1)c1ccncc1
  RecA intein inh = 0.9
> CCOc1ccccc1NC(=S)NC(=O)CCc1ccccc1
  RecA intein inh = -1.7
> O=C1CCc2cc(NS(=O)(=O)c3ccc([N+](=O)[O-])cc3)cc3c2N1CC3
  RecA intein inh = 5.6
> COc1ccc(NS(=O)(=O)c2cc3c4c(c2)CCN4C(=O)CC3)c(OC)c1
  RecA intein inh = 15

# Carrying on:
> CC1CCc2sc3ncnc(N4CCN(C)CC4)c3c2C1 (stereo not drawn)
  RecA intein inh = -1.3
> O=C(NC1CCCC1)C(c1ccccc1F)N(C(=O)c1csnn1)c1ccccc1 (stereo not drawn)
  RecA intein inh = -0.6
> Cc1cccc(Nc2c([N+](=O)[O-])ccc3nonc23)c1C
  RecA intein inh = 4.5
> Cc1ccn(CC(=O)N2CCCC(N3CCN(c4ccccc4F)CC3)C2)n1 (stereo not drawn)
  RecA intein inh = -0.4
> CCn1cc(C(=O)NCCc2ccc(Cl)cc2)c(=O)c2cc(S(=O)(=O)N(C)C)ccc21
  RecA intein inh = 0.0
> CCc1ccc(S(=O)(=O)/N=C2\C=C(NS(=O)(=O)c3ccccc3)C(=O)c3ccccc32)cc1
  RecA intein inh = 34*
> COc1ccc(-n2c(SCC(=O)N3CCCCC3)nc3ccccc3c2=O)cc1
  RecA intein inh = -0.4
> CCN(C(=O)c1cccc(S(=O)(=O)N2CCCCC2)c1)C1CCS(=O)(=O)C1 (stereo not drawn)
  RecA intein inh = -3.0
> O=C(NNC(=O)c1ccccc1C(=O)O)c1ccc(S(=O)(=O)N2CCCCC2)cc1
  RecA intein inh = 1.8
> Cc1nnc2sc(-c3ccc(N(C)C)cc3)nn2c1=O
  RecA intein inh = 1.9

> Cc1ccc(OCc2cc(C(=O)NCc3cc(F)ccc3C)no2)cn1
  RecA intein inh = -1.4
> Cc1ccc(N2CC(C)Cn3c2nc2c3c(=O)[nH]c(=O)n2C)cc1 (stereo not drawn)
  RecA intein inh = 1.6
> Cc1c(C(=O)NCCC2=CCCCC2)sc2ncnc(N3CCCCC3C)c12 (stereo not drawn)
  RecA intein inh = -0.2
> COc1ccc(CCC(=O)N2CCN(c3ccc(OC)cc3)CC2)cc1
  RecA intein inh = 0.0
> COC(=O)CSc1nc2sc3c(c2c(=O)n1-c1ccc(OC)cc1)CCN(C)C3
  RecA intein inh = -1.8
> COC(C(=O)NNS(=O)(=O)c1ccccc1[N+](=O)[O-])c1ccccc1 (stereo not drawn)
  RecA intein inh = -2.6
> CCN(CC)c1ccc(/C=N/NC(=O)c2ccc3c(c2)OCCO3)cc1
  RecA intein inh = -4.0
> CC(C)c1ccc(N(C(=O)c2snc(C(N)=O)c2N)C(C(=O)NCC2CCCO2)c2ccc(N(C)C)cc2)cc1 (stereo not drawn)
  RecA intein inh = 4.5
> CCCc1cc(C(=O)Nc2ccc(OC)cc2[N+](=O)[O-])cs1
  RecA intein inh = 0.5
> COc1cccc(N(CC(=O)NC2CCCCC2)C(=O)Cn2nnc(-c3ccc(C)o3)n2)c1
  RecA intein inh = -0.6

# Part of the list above, bar-delimited.
structure | RecA intein inh
CCc1ccc(S(=O)(=O)/N=C2\C=C(NS(=O)(=O)c3ccccc3)C(=O)c3ccccc32)cc1 | 34*
COc1ccc(-n2c(SCC(=O)N3CCCCC3)nc3ccccc3c2=O)cc1 | -0.4
CCN(C(=O)c1cccc(S(=O)(=O)N2CCCCC2)c1)C1CCS(=O)(=O)C1 (stereo not drawn) | -3.0
O=C(NNC(=O)c1ccccc1C(=O)O)c1ccc(S(=O)(=O)N2CCCCC2)cc1 | 1.8

# New compounds follow:
> COc1cc(OC)cc(C(=O)c2c(C)c(C#N)c3ccccn23)c1
  RecA intein inh = 1.5
> CCOC(=O)C1CCN(C(=O)c2ccc(OC3CCN(C(=O)COC)CC3)cc2)CC1
  RecA intein inh = -3.0
> O=C(Nc1ccnn1C1CCN(C2CCCCC2)CC1)c1cccc(F)c1
  RecA intein inh = -0.2
> CCC(=O)Nc1ccc(NC(=O)CSc2nnnn2C2CCCC2)cc1C
  RecA intein inh = 2.6
> CSc1ccc(C(=O)N2CCC(CCC(=O)NCc3ccc(F)cc3)CC2)cc1
  RecA intein inh = 3.9
> CCN(CC)S(=O)(=O)c1ccc2c(c1)c(=O)c(C(=O)NCCc1ccc(OC)c(OC)c1)cn2C
  RecA intein inh = 0.6
> CCn1cc(/C=C(\NC(=O)c2ccc(OC)c(OC)c2)C(=O)NCCCN2CCOCC2)c2ccccc21
  RecA intein inh = 2.2
> CC(=O)Nc1c(-c2cc(=O)oc3cc(C)ccc23)oc2ccccc12
  RecA intein inh = -0.6
> Cc1noc(NS(=O)(=O)c2ccc(NC(=O)c3oc4ccc(F)cc4c3C)cc2)c1C
  RecA intein inh = 4.5
> CC(C)CC(=O)Nc1nc(-c2ccc(S(=O)(=O)N3CCOCC3)cc2)cs1
  RecA intein inh = -2.3

> CCCN1CCc2c(sc3nc(SCC)n(-c4ccc(OC)cc4)c(=O)c23)C1
  RecA intein inh = -1.4
> Cc1cccc(NC(=O)c2cc3ccccc3c(=O)o2)n1
  RecA intein inh = 0.4
> CCOc1ccccc1N=Cc1c(O)n(C)c(=O)n(C)c1=O
  RecA intein inh = -6.7
> COc1ccc(N2CCN(c3nc4c(C)cccn4c(=O)c3C=C(C#N)C#N)CC2)cc1
  RecA intein inh = 1.7
> COc1ccc2c(c1)c(C(C)=O)c(C)n2-c1ccc(C(C)=O)cc1
  RecA intein inh = -1.3
> CCN(C(=O)c1ccc(S(=O)(=O)N2CCOCC2)cc1)C1CCS(=O)(=O)C1 (stereo not drawn)
  RecA intein inh = 2.0
> COc1ccc(N2CCN(CCNC(=O)c3ccc4nc5ccccc5c(=O)n4c3)CC2)cc1
  RecA intein inh = -13
> COCC(=O)N1CCC(Oc2ccc(C(=O)N3C[C@@H]4CCC[C@H]3C4)cc2)CC1
  RecA intein inh = 2.8
> COc1ccccc1-c1ocnc1C(=O)Nc1ccc(N2CCOCC2)cc1N1CCOCC1
  RecA intein inh = -3.7
> O=C(c1ccccc1)C1CCN(C(=O)C2CCC(=O)N(Cc3cccc(F)c3)C2)CC1 (stereo not drawn)
  RecA intein inh = 1.6

> CN1CCN(c2ccc(NC(=O)COc3ccccc3)cc2Cl)CC1
  RecA intein inh = -0.7
> CC(=O)NS(=O)(=O)c1ccc(NC(=S)NC(=O)C2CCC2)cc1
  RecA intein inh = -2.7
> CC(C)CN(C(=O)C1CCCC1)C1CCS(=O)(=O)C1 (stereo not drawn)
  RecA intein inh = -2.4
> CCOC(=O)N1CCN(C2CCCN(C(=O)c3ccccc3C(F)(F)F)C2)CC1 (stereo not drawn)
  RecA intein inh = -5.9
> CSc1ccccc1OCc1cc(C(=O)NCCc2nc(C)cc(C)n2)no1
  RecA intein inh = 1.7
> O=C(Nc1ccc(Br)cc1)Nc1cnccn1
  RecA intein inh = 0.5
> Cc1ccc(-c2nnc(NC(=O)CCS(=O)(=O)c3ccccc3)o2)c(C)c1
  RecA intein inh = 9.1
> Cc1ccc(OCC(=O)N/N=C/C=C/c2ccco2)c(Br)c1
  RecA intein inh = 7.2
> COc1ccccc1CN1CC(C(=O)NCCc2ncccc2C)CCC1=O (stereo not drawn)
  RecA intein inh = -4.9
> C/C(=N\NC(=O)c1ccc(Cn2cc(Br)cn2)o1)c1ccc(NC(=O)c2ccoc2C)cc1
  RecA intein inh = 0.3

> COc1ccc(CNC(=O)C2CC(O)CN2C(=O)Nc2ccccc2)cc1 (stereo not drawn)
  RecA intein inh = -2.8
> O=c1[nH]c(=S)n(-c2cccc(C(F)(F)F)c2)c(O)c1C=NCCN1CCNCC1
  RecA intein inh = -1.9
> O=C(CSc1nc2c(oc3ccccc32)c(=O)n1CC1CCCO1)NCc1ccc(F)cc1 (stereo not drawn)
  RecA intein inh = 3.8
> CC(=O)N1C(C(=O)O)Cc2c([nH]c3ccccc23)C1C (stereo not drawn)
  RecA intein inh = -15
> CCc1nnc(NC(=O)c2ccc(F)c(S(=O)(=O)N3CCCCC3)c2)s1
  RecA intein inh = 3.1
> COc1ccc(Cc2nc3ccc(C(=O)N(C)CCc4cnn(C)c4)cc3o2)cc1OC
  RecA intein inh = -0.5
> Cn1c(=O)c2ccccc2n2c(CCl)nnc12
  RecA intein inh = 8.9
> CC(C)(C)OC(=O)N1CCN(c2ccc(NC(=O)c3ccco3)cc2)CC1
  RecA intein inh = 0.4
> CCn1cc(Cl)c(C(=O)Nc2nccs2)n1
  RecA intein inh = -0.4
> CC(=O)Nc1ccc(NC(=O)CSc2nc3c(=O)n(C)c(=O)n(C)c3n2C)cc1
  RecA intein inh = -4.2

# Some of the entries above in a different format:
mol,RecA intein inh
C/C(=N\NC(=O)c1ccc(Cn2cc(Br)cn2)o1)c1ccc(NC(=O)c2ccoc2C)cc1,0.3
COc1ccc(CNC(=O)C2CC(O)CN2C(=O)Nc2ccccc2)cc1 (stereo not drawn),-2.8

# Next section:
> O=C(Cc1ccccc1)NNC(=O)c1ccc(Br)o1
  RecA intein inh = 0.4
> COc1ccccc1NC1CCCCC1NS(=O)(=O)c1ccc(C)cc1 (stereo not drawn)
  RecA intein inh = -0.9
> COc1ccccc1NC(=O)C(=O)Nc1ccc2c(c1)N(C(=O)C1CC1)CCC2
  RecA intein inh = 6.3
> Cc1cc(NS(=O)(=O)c2ccc(NC(=O)COc3ccc(Cl)c(C)c3)cc2)no1
  RecA intein inh = -0.2
> COc1cccc(CN2CC(C(=O)NCc3cccc(Cl)c3)CCC2=O)c1 (stereo not drawn)
  RecA intein inh = 2.8
> O=C(CN(C1CCCCC1)S(=O)(=O)c1ccccc1)NCC1CCCO1 (stereo not drawn)
  RecA intein inh = 0.1
> O=C(CSc1nnc(-c2ccc(F)cc2)o1)NC1CCCC1
  RecA intein inh = 5.4
> Cc1ncoc1C(=O)NC1CCCc2c1cnn2-c1ccc(C(C)(C)C)cc1 (stereo not drawn)
  RecA intein inh = 2.6
> COc1ccc(OC)c(CC(NC(C)=O)C(=O)NC2CCN(C(=O)c3cccc(C)c3)CC2)c1 (stereo not drawn)
  RecA intein inh = 2.0
> O=C(CCS(=O)(=O)c1ccccc1)N(CCCN1CCOCC1)c1nc2c(F)cccc2s1
  RecA intein inh = 2.3

> COc1ccccc1CCNC(=O)C1CCC(=O)N(Cc2cccc(F)c2)C1 (stereo not drawn)
  RecA intein inh = 4.9
> CN(Cc1cnccn1)C(=O)c1cc(COc2cccc(C(F)(F)F)c2)on1
  RecA intein inh = -5.7
> COc1cc(C(=O)N/N=C/c2ccc(OC(=O)c3cccc(C)c3)cc2)ccc1O
  RecA intein inh = 1.1
> COc1cc(-c2c(C(C)=O)c(C)nc3c2C(=O)c2ccccc2-3)cc(OC)c1OC
  RecA intein inh = 0.7
> C=CCn1c(=O)c2ccccc2n2c(SCC(=O)NC(C)C)nnc12
  RecA intein inh = -1.6

# Source: PubChem BioAssay
